YopH inh: blocks Yersinia enterocolitica YopH tyrosine phosphatase. actives 0.16% (n = 140,000). inhibition, %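 (about 10 µM by stock and volumes)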. fluorescence Ex485/Em525;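 active = inhibition of 50% or more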;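 also: controls were vehicle for no effect and minimum signal wells for full effect; inactives centre near -20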
Mtb bLac sens: beta-lactam sensitization of Mtb H37Rv; M. tuberculosis H37Rv growth with meropenem, percent inhibition; hits of this screen are not shown here; inhibition, % at 25 µM; actives 0.27% (n = 330,000); AID 434955;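 active = about 74% or more and at least 40 points above the plate without the antibiotic, then above 30% in a dose series; inconclusive = first-round hits that could not be retested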;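 also: growth measured after seven days incubation then overnight dye step; 0% = bacteria only wells and 100% = bacteria with antibiotic; twin plates without the antibiotic show which effects depend on it; some results filed as inactive read as strong as hits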
RecA intein inh: blocks M. tuberculosis RecA intein splicing; cell-free RecA intein splicing, fluorescence; P9WHJ3; actives 0.75% (n = 290,000); inhibition, %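 (about 9 µM by stock and volumes)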; in the data active = inhibition above about 30%; inconclusive = no clear call, values can overlap the other calls;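 also: 0% = vehicle wells and 100% = reference inhibitor control wells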
Target sequence (P9WHJ3 whole entry, looked up): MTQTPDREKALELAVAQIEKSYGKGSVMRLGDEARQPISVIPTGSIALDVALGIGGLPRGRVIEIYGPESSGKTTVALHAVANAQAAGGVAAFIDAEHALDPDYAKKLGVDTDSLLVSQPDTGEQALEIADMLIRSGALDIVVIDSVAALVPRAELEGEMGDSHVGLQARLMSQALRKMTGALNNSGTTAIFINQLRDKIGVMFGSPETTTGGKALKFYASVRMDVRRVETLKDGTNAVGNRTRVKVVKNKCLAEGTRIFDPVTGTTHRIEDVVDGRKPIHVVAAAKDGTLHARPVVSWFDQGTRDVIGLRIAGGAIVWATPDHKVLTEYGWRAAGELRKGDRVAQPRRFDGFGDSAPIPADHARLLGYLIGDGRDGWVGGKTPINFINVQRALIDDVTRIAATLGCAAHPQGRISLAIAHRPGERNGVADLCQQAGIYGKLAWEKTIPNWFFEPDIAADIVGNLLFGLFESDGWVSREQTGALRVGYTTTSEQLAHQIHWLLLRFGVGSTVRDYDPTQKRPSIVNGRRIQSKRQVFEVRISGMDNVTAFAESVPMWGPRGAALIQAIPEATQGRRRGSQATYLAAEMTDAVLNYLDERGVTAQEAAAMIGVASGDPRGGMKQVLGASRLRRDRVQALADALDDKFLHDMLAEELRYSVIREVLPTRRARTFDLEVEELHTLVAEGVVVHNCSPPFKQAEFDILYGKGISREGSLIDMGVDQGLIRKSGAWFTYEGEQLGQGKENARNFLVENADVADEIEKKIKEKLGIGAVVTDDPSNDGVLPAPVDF
Arbovirus inh: blocks arbovirus infection. arbovirus infection cell-based antiviral screen. actives 0.37% (n = 200,000). inhibition, % at 10 µM;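 active = inhibition from about 30%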;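 also: bluetongue infection of BSR cells; cell survival read as ATP light after 72 h; 0% = infected wells without compound and 100% = uninfected wells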
Mtb growth: M. tuberculosis H37Rv growth inhibitors, H37Rv strain (AID 1626). actives 0.95% (n = 220,000). M. tuberculosis H37Rv growth inhibition; higher % means a stronger effect. inhibition, % at 10 µM; hits with a dose series show IC50 in µM;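 active = confirmed in a dose series; inconclusive = inhibition above 80% but not taken into the dose series; inactive = below 80% or under 30% at every dose of the series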;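 also: bacteria incubated seven days before Alamar blue readout; 0% = bacteria only wells and 100% = bacteria with antibiotic wells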
Arbovirus inh repeat: recorded beside Arbovirus inh, whose call it bears; inhibition, %; measured here: 10K subset replicate screen; many hits read low in the repeat;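 first of two repeat runs on a subset; 0% = infected and 100% = uninfected wells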
Numbers without * were called inactive; i = inactive; u = inconclusive; x = not tested or not shown. These rows are one share of the data; count on the stated rates, not on these rows.

SMILES | YopH inh | Mtb bLac sens | RecA intein inh | Arbovirus inh | Mtb growth | others
O=C(COC(=O)CCSc1ccc(Cl)cc1)Nc1ccc(F)cc1 | -15 | 1 | 11 | 2 | 2%
CC(=O)C1=C(C)NC(SCC(=O)Nc2nc3ccccc3s2)=C(C#N)C1c1ccc(Cl)cc1 (centres undefined) | -22 | 98 | -11 | 24 | 22%
O=C(CCN(CCO)Cc1ccccc1)Nc1ccc(Br)cc1 | -16 | -3 | 1.4 | -27 | -3%
COc1ccc(C2c3[nH]c4ccccc4c3CCN2C(=O)c2cn3ccccc3n2)c(F)c1 (centres undefined) | x | -6 | 5.8 | 0 | 39%
CCCc1nnc(SCC(=O)Nc2nnc(CC)s2)n1CC1CCCO1 (centres undefined) | x | 6 | 1.0 | x | x
Cc1ccc(OCC(=O)NNC(=O)CCC(=O)Nc2ccc(C)cc2C)cc1 | -10 | -2 | -3.9 | -7 | x
Cc1cc(N2CCCC(C(=O)Nc3cccc(Cl)c3)C2)n2ncnc2n1 (centres undefined) | x | 9 | -1.5 | 0 | 1%
O=C(CCCc1ccccc1)NCCS(=O)(=O)N1CCN(c2ccccc2F)CC1 | x | -5 | -2.0 | x | x
COC(=O)c1ccc(/C=N/N2CCN(Cc3ccccc3Cl)CC2)cc1 | x | 67 | -3.7 | x | 10%
O=C(NN1C(=O)C2C3C=CC(C3)C2C1=O)c1ccncc1 (centres undefined) | -28 | u | -3.7 | 2 | 52%
COc1ccc(-c2cc(-c3ccc(C)cc3)nc(SCc3nnc(-c4ccccc4)o3)c2C#N)cc1OC | -13 | 12 | -8.9 | -29 | -7%
C[C@H](NC(=O)[C@@H]1CSC2c3ccccc3C(=O)N21)C(=O)NC1CCCCC1 (some centres undefined) | x | 13 | 1.1 | x | x
CCCn1nnnc1NCc1cc(Br)ccc1OC | x | 3 | -2.6 | -4 | -5%
N#C/C(=C/c1ccc(Cl)cc1)NC(=O)c1ccccc1 | -23 | 6 | 13 | -3 | -1%
COC(=O)c1ccccc1N(C)S(=O)(=O)c1cc2c3c(c1)CCC(=O)N3CCC2 | x | 1 | 1.3 | x | x
O=C(Nc1ccc(Br)cc1)C1CCCN1S(=O)(=O)c1cccs1 (centres undefined) | -21 | 88 | 6.5 | 3 | 68%
COc1cc(/C=C2\SC(=S)N(NS(=O)(=O)c3ccccc3)C2=O)ccc1O | x | -4 | 2.5 | x | -3%
CCC(=O)N1CCc2cc(S(=O)(=O)N3CCCCCC3)ccc21 | x | 2 | -11 | x | x
COC(=O)c1ccccc1NC(=O)CSc1nnc(C(C)NC(=O)c2ccc(Cl)cc2Cl)n1C (centres undefined) | -8 | -19 | 1.8 | 5 | -9%
Cc1cccc(-c2nnn(C/C(N)=N/O)n2)c1 | x | 0 | -1.8 | -3 | 1%
COc1ccc(NC(=O)CN2CCN(C(=O)C3CCCO3)CC2)c(OC)c1 (centres undefined) | x | -15 | 1.2 | x | x
Cc1occc1C(=O)NNC(=S)NC(=O)COc1ccc(Cl)cc1Cl | x | 99 | 17 | x | x
CCC(C)(C)NCC(=O)Nc1ccc(OC(F)(F)F)cc1 | -22 | -10 | -0.4 | -14 | -5%
COc1ccc(/C=C/C(=O)Oc2ccc(/C=N\NC(=O)c3ccc(F)cc3)cc2)cc1 | -5 | 10 | -1.0 | -4 | -2%
CC(=O)Nc1ccc(C2C(=O)c3ccccc3C2=O)cc1 | x | -8 | 4.4 | x | -10%
Cc1ccc(-n2cccn2)c([C@@H]2C[C@H]3CN(C)C(=O)[C@]34CCCN24)c1 | x | 1 | -0.7 | 10 | -2%
CC(NC(=O)COc1ccc(Br)cc1)C1CCCO1 (centres undefined) | x | -18 | 0.6 | x | x
CCN(CC)S(=O)(=O)c1ccc(NC(=O)COc2nc3ccccc3nc2N2CCOCC2)cc1 | -16 | 3 | 3.4 | -1 | 13%
CCOC(=O)C1CCCN(Cc2nc(N)nc(Nc3ccc(OC)cc3)n2)C1 (centres undefined) | 26 | 0 | -2.0 | -4 | -7%
C=CCn1c(O)c(C(C)=NCc2ccco2)c(=O)[nH]c1=O | -11 | 3 | 1.0 | -1 | -13%

Some of these compounds in order of heavy-atom count, highest first.
SMILES | YopH inh | Mtb bLac sens | RecA intein inh | Arbovirus inh | Mtb growth | others
COC(=O)c1ccccc1NC(=O)CSc1nnc(C(C)NC(=O)c2ccc(Cl)cc2Cl)n1C (centres undefined) | -8 | -19 | 1.8 | 5 | -9%
COc1ccc(/C=C/C(=O)Oc2ccc(/C=N\NC(=O)c3ccc(F)cc3)cc2)cc1 | -5 | 10 | -1.0 | -4 | -2%
Cc1ccc(-n2cccn2)c([C@@H]2C[C@H]3CN(C)C(=O)[C@]34CCCN24)c1 | x | 1 | -0.7 | 10 | -2%
CCC(C)(C)NCC(=O)Nc1ccc(OC(F)(F)F)cc1 | -22 | -10 | -0.4 | -14 | -5%

Later entries:
SMILES | YopH inh | Mtb bLac sens | RecA intein inh | Arbovirus inh | Mtb growth | others
CCCS(=O)(=O)N1CCCC(C(=O)NCCCOC(C)C)C1 (centres undefined) | -15 | -6 | -4.9 | 1 | -11%
CCN(CC)P(c1n(C)cc[n+]1C)N(CC)CC | x | 11 | -1.5 | 5 | 0%
CCc1ccc(OCC(O)Cn2c(N3CCCCC3)nc3c2c(=O)[nH]c(=O)n3C)cc1 (centres undefined) | x | 1 | 3.2 | x | x
N#Cc1ccc(COc2cccnc2[N+](=O)[O-])cc1 | x | -3 | -1.4 | x | x
CCn1ccnc1CN1CCc2c([nH]c3ccccc23)C1C(C)(C)C (centres undefined) | x | -1 | 7.0 | -8 | 77%
Cc1cccc(N(CC(=O)N2CCOCC2)S(C)(=O)=O)c1 | -1 | 2 | -0.9 | 0 | -1%
CC(=O)Nc1ccc(O)c(-c2nc3ccccc3s2)c1 | x | -3 | -339 | 3 | 5%
COc1ccccc1C(=O)Nc1ccnn1C1CCN(Cc2cnc(N(C)C)s2)CC1 | x | -1 | 0.8 | x | x
CCSc1nnc([C@@H]2CCCN2C(=O)OC(C)(C)C)o1 | -23 | 2 | 0.6 | 3 | -1%
COc1ccc(S(=O)(=O)Nc2ccc(Oc3ccsc3C(=O)O)cc2)cc1 | x | -7 | 1.0 | x | x
CCS(=O)(=O)c1ccc2oc(Nc3cccc(OC)c3)nc2c1 | x | -1 | -5.8 | 0 | 8%
Fc1cccc(Cl)c1-c1nnc2ccc(N3CCOCC3)nn12 | 4 | -4 | 0.4 | 6 | -11%
O=C(NCC1CC1)C1CCCN(S(=O)(=O)c2ccc(-n3cnnn3)cc2)C1 (centres undefined) | -43 | -9 | -0.6 | 2 | -15%
COc1ccc(CN(C(=O)CO/N=C/c2ccccc2)c2ccccc2C(=O)O)cc1 | -23 | -5 | 0.8 | 5 | 3%
COc1cc(/C=C2/CCCC(C(=O)C(F)(F)F)=C2O)ccc1O | x | 9 | -2.3 | x | 1%
C=CCSc1nnc(NC(=O)CSc2nnc(C)s2)s1 | -28 | 0 | -1.9 | 5 | 2%
CN(C)C(CNC(=O)c1cc2ccccc2oc1=O)c1ccccc1 (centres undefined) | x | -2 | -1.6 | x | x
CCOC(=O)C1=C(CSc2nnnn2C)N(C)C(=O)NC1c1ccccc1 (centres undefined) | -14 | -9 | -0.7 | 6 | -7%
Cc1ccc(-c2nc3ncccc3o2)cc1NC(=O)C(C)C | x | -1 | 1.3 | x | x
CCOc1ccc(C2CC(c3cccc(Cl)c3)n3nc(N)nc3N2)cc1 (centres undefined) | -26 | 1 | -1.7 | 16 | 3% | Arbovirus inh repeat=2
COc1ccccc1C(=O)CSc1n[nH]c(N)n1 | -9 | -3 | -4.4 | 4 | -4%
CC(C)Oc1ccc(C2c3c(oc4ccccc4c3=O)C(=O)N2CCCN2CCOCC2)cc1 (centres undefined) | -28 | u | 2.2 | 3 | 4%
CCN(CC)c1ccc(C2N(C(=O)N3CCOCC3)CCN2S(=O)(=O)c2ccc(C)cc2)cc1 (centres undefined) | -25 | -2 | 3.0 | -2 | -5%
COc1cccc(N(CC(=O)N2CCCC2)S(C)(=O)=O)c1 | x | 3 | 1.1 | x | x
COc1ccccc1CNS(=O)(=O)c1ccc2c(c1)CCCN2C(C)=O | x | -7 | 0.2 | x | x
O=C(CSc1nnnn1-c1cccc2ccccc12)NC(C(=O)O)(c1ccccc1)c1ccccc1 | x | 2 | -0.6 | 4 | 2%
O=C(CCn1nc(-c2ccc(Cl)cc2)ccc1=O)N1CCN(c2ccccc2)CC1 | x | 2 | 2.9 | x | x
O=S(=O)(/N=C(/NC(=S)Nc1ccccc1)c1ccccc1)c1ccc(Cl)cc1 | x | 7 | 3.0 | x | x
COc1ccc(NC(=O)CC2C(=O)N(c3cccc(OC)c3)C(=O)N2C(C)C)cc1 (centres undefined) | x | 1 | -0.9 | 10 | 0%
O=C1NN(c2ccccc2)C(=O)C2C3C=CC(C4CC34)C12 (centres undefined) | -5 | -5 | 0.3 | 6 | 6%
CCN1CCN(CCNC(=O)c2ccc(/C=C3\Sc4ccccc4N(Cc4ccccc4F)C3=O)cc2)CC1 | x | -9 | 12 | -39 | 7%
O=C(Nc1ccc(NC(=O)c2ccco2)cc1)c1ccco1 | x | 1 | -4.9 | x | x
CSc1ccc(Cl)c(C(=O)OCC(=O)Nc2ccccc2OC(F)F)c1 | -21 | 78 | 0.9 | 6 | 17%
CSc1ccccc1OCc1cc(C(=O)N(C)Cc2cc(C)[nH]n2)no1 | x | -6 | 1.9 | x | x
Cc1cc(Cl)c(S(=O)(=O)N/N=C/c2ccc3c(c2)OCO3)c(Cl)c1 | -43 | 0 | 2.5 | 6 | x
O=C(NCc1cccnc1)c1ccc(Cl)c(Cl)c1 | 19 | -5 | 0.8 | -4 | -5%
CCOC(=O)C(=O)/C(C#N)=C/Nc1ccccc1 | -25 | 7 | 2.3 | 1 | -2%
C=CCN1C(=O)/C(=C/c2ccc(O)cc2)S/C1=N/c1nccs1 | -18 | 4 | 3.6 | -2 | 12%
CCCCn1c(NS(=O)(=O)c2ccccc2)c(C(=O)OCC)c2nc3ccccc3nc21 | 10 | -10 | i | 16 | 0%
CCOC(=O)Cn1c(=O)oc2cc(S(=O)(=O)Nc3ccc(N(CC)CC)cc3C)ccc21 | 12 | -1 | -3.7 | -9 | -1% | Arbovirus inh repeat=-12
CN(C)c1ccc(/C=N/NC(=O)c2ccccn2)cc1 | x | 100 | 3.3 | x | 59%
CC#CCNCc1ccccc1 | -18 | -1 | 3.9 | 9 | 0%
Clc1cc(NCc2cccs2)ccc1N1CCOCC1 | -50 | u | -2.6 | -1 | -11% | Arbovirus inh repeat=-4
O=C(CC1NC(=O)NC1=O)Nc1ccccc1 (centres undefined) | -1 | -5 | 4.2 | 3 | 6%
O=C1CN(C(=O)CCN2CCOCC2)C(c2ccccc2)c2cc(Br)ccc2N1 (centres undefined) | -47 | -7 | 0.0 | -4 | -6%

Six compounds picked at random from the list so far, as already listed:
SMILES | YopH inh | Mtb bLac sens | RecA intein inh | Arbovirus inh | Mtb growth | others
CCOC(=O)C(=O)/C(C#N)=C/Nc1ccccc1 | -25 | 7 | 2.3 | 1 | -2%
CSc1ccccc1OCc1cc(C(=O)N(C)Cc2cc(C)[nH]n2)no1 | x | -6 | 1.9 | x | x
CCN1CCN(CCNC(=O)c2ccc(/C=C3\Sc4ccccc4N(Cc4ccccc4F)C3=O)cc2)CC1 | x | -9 | 12 | -39 | 7%
CCOC(=O)Cn1c(=O)oc2cc(S(=O)(=O)Nc3ccc(N(CC)CC)cc3C)ccc21 | 12 | -1 | -3.7 | -9 | -1% | Arbovirus inh repeat=-12
Cc1cc(Cl)c(S(=O)(=O)N/N=C/c2ccc3c(c2)OCO3)c(Cl)c1 | -43 | 0 | 2.5 | 6 | x
O=C(NCc1cccnc1)c1ccc(Cl)c(Cl)c1 | 19 | -5 | 0.8 | -4 | -5%

Continuation.
SMILES | YopH inh | Mtb bLac sens | RecA intein inh | Arbovirus inh | Mtb growth | others
NS(=O)(=O)c1cc([N+](=O)[O-])ccc1NCc1cccnc1 | x | -2 | -0.5 | x | x
O=C(Cc1noc2ccccc12)Nc1ccc(Cl)cc1 | -27 | 4 | -2.8 | -5 | -2%
O=C(Nc1ncn[nH]1)c1cccc(S(=O)(=O)N2CCOCC2)c1 | x | -8 | 0.5 | 3 | -1%
CCCS/C(N)=N/N=C/c1ccccc1O | -7 | 99 | -2.8 | -3 | 4%

Screening data (PubChem BioAssay)
